Screening data: PubChem, Vanderbilt University
GIRK2 activ = GIRK2 channel activation; P48051; HEK293-GIRK2 thallium flux, Thallos fluorescence; calls only for hits at 25 µM; actives 0.05% (n = 63,000); AID 1259325;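 active = among the strongest 0.2% of first-round signals and kept after retests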;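 note: first round at about 10 µM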
Target sequence (P48051 whole entry, looked up): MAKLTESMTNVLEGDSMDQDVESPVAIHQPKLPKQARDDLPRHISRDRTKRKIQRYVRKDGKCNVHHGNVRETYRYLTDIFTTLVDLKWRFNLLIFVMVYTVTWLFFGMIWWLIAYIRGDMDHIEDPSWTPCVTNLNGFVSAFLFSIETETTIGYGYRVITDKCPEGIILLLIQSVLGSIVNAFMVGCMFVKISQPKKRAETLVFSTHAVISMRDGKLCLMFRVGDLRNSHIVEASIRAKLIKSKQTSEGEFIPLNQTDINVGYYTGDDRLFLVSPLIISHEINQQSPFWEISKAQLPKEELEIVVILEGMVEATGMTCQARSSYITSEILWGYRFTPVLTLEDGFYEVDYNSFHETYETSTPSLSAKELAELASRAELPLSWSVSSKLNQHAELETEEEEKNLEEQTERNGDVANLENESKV
Calls only; i = inactive.

GIRK2 activ	Structure
i	Cn1nc(-c2ccc(NC(=O)c3ccc(Cl)c([N+](=O)[O-])c3)cc2)ccc1=O
i	COc1ccccc1CNC(=O)C1CCN(c2ncnc3c2sc2ncccc23)CC1
i	C/C=C(\C)CC(/C=C(\C)C(O)C(C)/C=C(\C)C(O)C(C)/C=C/C(O)C/C=C/C(O)C(O)C(=O)O)C(=O)O (centres undefined)
i	CCc1ccc(-n2ncc(C(=O)N3CCN(C(=O)c4ccco4)CC3)c2-n2cccc2)cc1
i	CC1CCN(S(=O)(=O)N2CCN(c3ccccc3F)CC2)CC1
i	O=C(CN1CCN(c2ccc(F)cc2)C1=O)NCCCO
i	CN(C)c1cccc(C(=O)NCC2(O)CCOc3ccccc32)c1 (centres undefined)
i	Cn1cccc(C(=O)NCC2CCN(c3cnccn3)CC2)c1=O
i	Cc1cc(Nc2ccc(C(N)=O)cc2)n2nc(C)c(-c3ccccc3)c2n1
i	CCCc1nnsc1C(=O)N1CCCC(c2nnc(-c3cccs3)o2)C1 (centres undefined)

Remaining list, next part.
GIRK2 activ	Structure
i	COc1ccc(-c2nnc(NC(=O)c3ccccc3)o2)c(OC)c1
i	COc1ccc(NC(=O)C(=O)NC(C)Cc2cccs2)cc1OC (centres undefined)
i	COc1ccc(/C=C2\Oc3cc(OC(=O)C(C)(C)C)ccc3C2=O)cc1OC
i	CN(CC(=O)Nc1cccc(Br)c1)c1nc2c(F)cccc2s1
i	COc1cccc(C2c3c(oc4cc(C)c(C)cc4c3=O)C(=O)N2c2cc(C)on2)c1OC (centres undefined)
i	Cc1ccc(CNC(=O)Cn2cnc3c(-c4ccc(F)cc4)nsc3c2=O)cc1
i	O=C(NCc1ccco1)C1CCCN(c2ccc(-c3cccs3)nn2)C1 (centres undefined)
i	Cc1noc(C2(NS(=O)(=O)c3c(C)noc3C)CCCCC2)n1
i	COCCN(Cc1ccncc1)C(=O)C1CC(=O)N(c2ccc(Cl)cc2)C1 (centres undefined)
i	CC(C)Cn1c(=O)[nH]c2c(C(=O)N3CCN(c4ccccc4)CC3)snc2c1=O

New compounds follow
GIRK2 activ	Structure
i	CCCN(Cc1ccsc1)C(=O)c1ccc(OC)c(OC)c1OC
i	Nc1ccc2sc(OCCN3CCOCC3)nc2c1
i	Cc1cc(O)c(CO)c2c1C(=O)Oc1c(O)c3c(c(C)c1O2)COC3=O
i	CCOC(=O)c1sc2ccccc2c1S(=O)(=O)Nc1c(C)cccc1C
i	Cc1cc2oc(=O)cc(CN3CCC4(CC3)OCCO4)c2cc1C
i	CCOc1ccccc1N1C(=O)/C(=C/c2ccncc2)SC1=S
i	COc1ccccc1N1CCN(CCNC(=O)CN2C(=O)c3ccccc3C2=O)CC1
i	O=C(CSc1nc2c(sc(=S)n2-c2ccc(Cl)cc2)c(=O)[nH]1)NC1CCCCC1
i	CC(=O)Nc1ccc2c(c1)N(S(=O)(=O)c1ccccc1)CCC2
i	O=c1c(Oc2ccccc2Br)coc2c3c(ccc12)OCN(Cc1ccco1)C3

(continued)
GIRK2 activ	Structure
i	Cc1cc(C(O)CCNC(=O)C(=O)NCc2cccs2)c(C)o1 (centres undefined)
i	Cc1cc(NC(=O)CN2C(=O)c3ccccc3C2=O)n(-c2nc3c(F)cccc3s2)n1
i	CCCOC(=O)c1ccc(N/C=C(\C#N)c2nc(-c3ccc([N+](=O)[O-])cc3)cs2)cc1
i	COc1ccc(OCc2noc(CNC(=O)CN3C(=O)CCC3=O)n2)cc1
i	COc1ccccc1NC(=O)c1cc(=O)c(OCc2ccc(F)cc2)cn1C
i	O=C(CSc1nc2ccccc2o1)NCc1cnn2ccccc12
i	O=C(c1ccc2c(c1)OCO2)N1CC(c2nc(-c3cccs3)no2)C1
i	Cc1cc(NC(=O)C(C)(C)C)sn1
i	CC(C)c1cc(=O)[nH]c(-n2nc(C3CC3)cc2NC(=O)C(=O)c2c[nH]c3ccccc23)n1
i	O=C(NCCOc1cc(N2CCOCC2)ncn1)NC1CCCCC1

Carrying on:
GIRK2 activ	Structure
i	Nc1ncc(-c2ccccc2)c(-c2ccc(OCc3ccc(F)cc3)cc2O)n1
i	CSc1ccc(NC(=O)C2c3ccccc3Oc3ccccc32)nn1
i	COc1cccc(Cn2nc3n(CC(C)C)c(=O)c4ccc(C(=O)NC(C)C)cc4n3c2=O)c1
i	Cc1noc(CNC(=O)c2ccc(=O)[nH]c2)n1
i	Cc1ccc2[nH]c3c(=O)n(CC(=O)NCc4ccccc4C(F)(F)F)cnc3c2c1
i	CC(C)(C)c1ccc(NC(=O)NCC2CCN(c3cnccn3)CC2)cc1
i	O=C(Nc1ccc(C(F)(F)F)cc1)c1cn(CC(O)c2cccs2)nn1 (centres undefined)
i	CC(O)Cn1c(NCCCOC(C)C)nc2c1c(=O)[nH]c(=O)n2C (centres undefined)
i	Cc1nc(C)c(C(=O)N2CCN(c3ccc(-n4ccnc4)nn3)CC2)s1
i	O=C(Nc1nc2ccc(Cl)cc2s1)c1cccc(S(=O)(=O)N2CCOCC2)c1

(continued)
GIRK2 activ	Structure
i	CSc1nn(CC(=O)Nc2ccc3c(c2)OCCO3)c(N)c1-c1nc(-c2ccc(Cl)cc2)no1
i	O=C(c1ccccc1)N1CCCc2cc(NS(=O)(=O)c3ccccc3)ccc21
i	CCCCN1CC(c2nc3ccccc3n2Cc2c(F)cccc2Cl)CC1=O (centres undefined)
i	COc1ccc(S(=O)(=O)NCC(C)(O)CSC)cc1OC (centres undefined)
i	CN1CCN(c2nnc(SCC(=O)Nc3ccc4c(c3)OCO4)s2)CC1
i	COC(=O)N1CCC(CNC(=O)Nc2cccc(OC)c2)CC1
i	CN(CC(=O)NCc1cnn2ccccc12)S(C)(=O)=O
i	COC(=O)c1ccc(CSc2nnc(N3CCN(c4ccccc4)CC3)s2)cc1
i	CCSc1ccccc1C(=O)NCC#CCN1CCCCC1
i	COc1ccc(/C=C/C(=O)c2cccc(NS(C)(=O)=O)c2)cc1OC

Next structures:
GIRK2 activ	Structure
i	CCOc1ccc(-c2noc(CSc3nccn3-c3cccc(OC)c3)n2)cc1
i	CCCCc1ccc(-n2c(C)cn3c4c(=O)n(CCOCC)c(=O)n(C)c4nc23)cc1
i	CCN1CCN(CC(O)COC(C)(C)C)CC1 (centres undefined)
i	O=C(Nc1cc(-n2cccn2)ncn1)c1cc(-c2ccccc2)on1
i	COC(=O)N1CCN(CCNC(=O)Cc2cccc3ccccc23)CC1
i	Cc1cc(NC(=O)C(=O)c2c[nH]c3ccccc23)n(-c2nc3c(cnn3-c3ccccc3)c(=O)[nH]2)n1
i	COC(=O)c1ccc(NC(=O)Cn2nc(N3CCCC3)c3ccccc3c2=O)cc1
i	COc1ccc(CCC(=O)NCC(C)(O)Cc2ccc(OC)cc2)cc1 (centres undefined)
i	CCOCCn1c(=O)c2c(nc3n(-c4cccc(C)c4)c(-c4ccccc4)cn23)n(C)c1=O
i	Cn1c(=O)[nH]c(=O)c2c1nc(NCCCO)n2CCCOc1ccccc1

(further entries)
GIRK2 activ	Structure
i	COc1ccccc1-n1c(C)cn2c3c(=O)n(CC(N)=O)c(=O)n(C)c3nc12
i	COc1ccc(NS(=O)(=O)c2ccc(CN3C(=O)c4ccccc4C3=O)cc2)cc1
i	Oc1ccccc1CNC12CC3CC(CC(C3)C1)C2
i	Cc1ccc(Cl)cc1N1CCN(C(=O)c2snc(-c3ccccn3)c2N)CC1
i	O=C(Nc1sccc1-c1nc2ccccc2s1)c1ccc(Cl)s1
i	Cn1cccc1CN(Cc1cccs1)C(=O)Nc1cccs1
i	CCOc1ccc2nc(SCC(=O)N3CCOCC3)[nH]c2c1
i	Cc1nnc(NC(=O)CN2CC(c3nc(-c4cccs4)no3)C2)s1
i	Cn1nc(-c2ccc(F)cc2)cc1C(=O)NCc1cc(-c2ccco2)n(C)n1
i	O=C(c1cc(C2CC2)on1)N(CCc1ccccc1)Cc1ccccn1

Structural class, the compounds so far containing a furan ring, fused or not.
GIRK2 activ	Structure
i	CCc1ccc(-n2ncc(C(=O)N3CCN(C(=O)c4ccco4)CC3)c2-n2cccc2)cc1
i	O=C(NCc1ccco1)C1CCCN(c2ccc(-c3cccs3)nn2)C1 (centres undefined)
i	O=c1c(Oc2ccccc2Br)coc2c3c(ccc12)OCN(Cc1ccco1)C3
i	Cc1cc(C(O)CCNC(=O)C(=O)NCc2cccs2)c(C)o1 (centres undefined)
i	Cn1nc(-c2ccc(F)cc2)cc1C(=O)NCc1cc(-c2ccco2)n(C)n1

Carrying on.
GIRK2 activ	Structure
i	COc1ccc(-c2noc(Cn3ccn(-c4cc(C)cc(C)c4)c(=O)c3=O)n2)cc1OC
i	COc1ccc(S(=O)(=O)N2CCCCC2CC(=O)NCCc2ccccc2)cc1 (centres undefined)
i	COc1ccccc1NC(=O)c1nnn(Cc2nc(-c3ccc(OC(C)C)cc3)oc2C)c1C
i	CCOC(=O)C1=C(C)NC(=O)NC1c1ccc(C(=O)OC)cc1 (centres undefined)
i	COc1cccc(-n2nnnc2SCC(=O)Nc2c(C)cccc2C(=O)O)c1
i	COc1ccc(-c2c(C)oc3cc(OCC#N)ccc3c2=O)cc1OC
i	CCOc1ccc(NC(=O)Cn2nc3c(N4CCCC(C)C4)nccn3c2=O)cc1 (centres undefined)
i	CCOC(=O)N1CCN(CC(O)COc2ccc(C(C)C)cc2)CC1 (centres undefined)
i	CC(C)(C)C(=O)NCCN1CCN(c2ccc(Cl)cc2)CC1
i	COCCCNC(=O)c1ccc(Nc2nn3c(=O)c4ccccc4nc3s2)cc1

6 records drawn at random from the list so far:
GIRK2 activ	Structure
i	COc1ccc(-c2noc(Cn3ccn(-c4cc(C)cc(C)c4)c(=O)c3=O)n2)cc1OC
i	CCOC(=O)N1CCN(CC(O)COc2ccc(C(C)C)cc2)CC1 (centres undefined)
i	CCOC(=O)C1=C(C)NC(=O)NC1c1ccc(C(=O)OC)cc1 (centres undefined)
i	COc1cccc(-n2nnnc2SCC(=O)Nc2c(C)cccc2C(=O)O)c1
i	COc1ccc(S(=O)(=O)N2CCCCC2CC(=O)NCCc2ccccc2)cc1 (centres undefined)
i	COc1ccccc1NC(=O)c1nnn(Cc2nc(-c3ccc(OC(C)C)cc3)oc2C)c1C

Remaining list, next part
GIRK2 activ	Structure
i	O=C(COc1ccc2c(c1)OCO2)Nc1cc(N2CCCC2)ncn1
i	COc1ccccc1-n1c(C)cn2c3c(=O)n(CC(=O)OCc4ccccc4)c(=O)n(C)c3nc12
i	COc1ccccc1N1CCN(C(=O)CCN2C(=O)c3ccccc3S2(=O)=O)CC1
i	CC1CCc2cc(F)ccc2N1C(=O)c1cc2ccccc2oc1=O (centres undefined)
i	CC(O)Cn1c(N2CCN(c3ccccc3)CC2)nc2c1c(=O)[nH]c(=O)n2C (centres undefined)
i	COC(=O)N1CCc2ccc(Br)cc2C1C(=O)NCc1cccnc1 (centres undefined)
i	Cc1noc(-c2cccnc2N2CCC(NC(=O)c3ccoc3)C2)n1 (centres undefined)
i	O=C(CCSc1nnc2scc(-c3ccccc3)n12)NCCc1ccccc1
i	CCc1nn(CCCN2CCN(c3cccc(Cl)c3)CC2)c(=O)n1CCOc1ccccc1
i	CCOc1ccc2nc(NC(=O)C3CCN(c4ccc(-n5cccn5)nn4)CC3)sc2c1

Next records:
GIRK2 activ	Structure
i	CNC(=O)CCc1csc(NC(=O)c2cccs2)n1
i	O=C(NCc1ccc(F)cc1F)c1nnn(-c2ccc(Cl)cc2)c1-c1cccnc1
i	CCOCCn1c(=O)c2c(nc3n(-c4ccc(C)cc4)c(C)c(C)n23)n(C)c1=O
i	COc1ccc(C(=O)N2CC(Oc3nc4ccccc4s3)C2)c(OC)c1
i	COC(=O)Cn1c(=O)c2c(nc3n(-c4ccc(Cl)cc4)c(C)cn23)n(C)c1=O
i	COc1cc(C)c(C(C)C)cc1S(=O)(=O)N1CCCC(C)C1 (centres undefined)
i	O=C1CCCC(=O)N1CCS(=O)(=O)N1CCCC(c2nnc(C(F)(F)F)o2)C1 (centres undefined)
i	CC(C)=CCCC(C)(O)CCCC(C)(O)CCCC(C)(O)CCCC(C)(O)CCCC(C)(O)CCCC(C)(O)CCC/C(C)=C/CC/C(C)=C/CO (centres undefined)
i	O=C(Nc1nc2c(s1)CN(C(=O)Nc1cccs1)CC2)C1CC1
i	COc1ccc(OC)c(C(=O)/C=C/c2ccccc2C(=O)O)c1

(further entries)
GIRK2 activ	Structure
i	CCOC(=O)c1cnn(-c2cc(C)nc3c(-c4ccc(Cl)cc4)c(C)nn23)c1N
i	O=C(c1ccccc1)N1CCCc2cc(NS(=O)(=O)c3ccc(Cl)cc3)ccc21
i	O=C(CN1CCN(c2cccc(Cl)c2)C1=O)Nc1nccs1
i	Cc1nc(-c2nnc(NC(=O)NCc3cccs3)o2)cs1
i	COc1cc(N2C=C(C#N)S(=O)(=O)c3c(F)cccc32)cc(OC)c1OC
i	Cc1cc(NC(=O)CSc2nnc(CCc3nc4ccccc4[nH]3)o2)no1
i	COc1ccc(C(=O)CSc2nnc(N3CCN(c4ccccc4)CC3)s2)cc1
i	COc1cc(OC)c(NC(=O)CN2N=NC3C(=O)N(c4ccc(F)cc4)C(=O)C32)cc1Cl (centres undefined)
i	O=C(c1ccc2nccnc2c1)N1CCCc2ccccc21
i	Cc1ccc(NC(=O)CSc2ccncn2)cc1F

Carrying on:
GIRK2 activ	Structure
i	O=C(c1cc(-c2ccccc2)n[nH]1)N1CC(c2nc(-c3ccc[nH]c3=O)no2)C1
i	O=C(O)CC1=C/C(=C\c2ccc3ccccc3c2)c2ccc(F)cc21
i	COc1cccc(-c2cc(C(=O)NCCC3=CCCCC3)n(C)n2)c1
i	O=C(Nc1ccc(-n2nnn(CC(=O)N3CCOCC3)c2=O)cc1)C1CC=CCC1 (centres undefined)
i	O=C(CN1CCN(S(=O)(=O)Cc2ccccc2)CC1)c1ccco1
i	CS(=O)(=O)CCNCc1ccc(-c2ccc3ncnc(Nc4ccc(OCc5ccccc5)c(Br)c4)c3c2)o1
i	Cc1cc(NC(=O)CN2CC(c3nc(-c4cccnc4)no3)C2)no1
i	COC(=O)c1ccc(NC(=O)CSc2ncnc3c2[nH]c2ccc(F)cc23)cc1
i	CC1CC(C)CN(CC(O)COCC2CC3CCC2C3)C1 (centres undefined)
i	COc1ccc(CNC(=O)Cn2nc3c(c2NC(=O)CSc2ccncc2)CSC3)cc1

The list is partial; rates above refer to the full screens.
